# Cruzain noTriton – qHTS Assay for Promiscuous and Specific Inhibitors of Cruzain (without detergent). Cruzipain (Trypanosoma cruzi), P25779. purified cruzain, Z-FR-AMC fluorescence, no detergent. Potency, µM, for the others: max response, negative = inhibition, most hits filed as inhibitors. hit rate 2.3% among 200,000. AID 1476, 2009;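 further: plate controls were enzyme without inhibitor for no effect and buffer without enzyme for full effect; nearly all actives have a fitted effect of over 40% in size; top concentration of the series not given in the record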
# Target sequence (P25779 123-467 limits assumed): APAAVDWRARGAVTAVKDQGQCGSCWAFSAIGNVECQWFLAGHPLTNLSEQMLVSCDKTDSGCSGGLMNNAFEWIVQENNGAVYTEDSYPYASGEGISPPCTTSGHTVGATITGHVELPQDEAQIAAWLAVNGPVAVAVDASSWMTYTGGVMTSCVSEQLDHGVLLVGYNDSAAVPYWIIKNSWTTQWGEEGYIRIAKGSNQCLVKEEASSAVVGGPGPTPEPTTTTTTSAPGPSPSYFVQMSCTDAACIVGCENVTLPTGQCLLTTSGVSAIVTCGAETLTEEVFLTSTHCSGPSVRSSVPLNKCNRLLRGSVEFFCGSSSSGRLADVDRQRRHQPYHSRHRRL
#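 Purified cruzain at 1.5 nM, pre-incubated 15 min with compound at room temperature in 100 mM sodium acetate pH 5.5, 5 mM DTT, 0.00005% Triton X-100. Reaction started with 2 uM Z-FR-AMC; AMC fluorescence increase over 60 s gives rate.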
# Cruzain Triton – qHTS Assay for Promiscuous and Specific Inhibitors of Cruzain (with detergent); Cruzipain (Trypanosoma cruzi), P25779; purified cruzain, Z-FR-AMC fluorescence, 0.01% Triton; Potency, µM, without a hit: max response, negative = inhibition, hits mostly inhibitors; hit rate 0.43% among 200,000; AID 1478, 2009;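 further: plate controls were neutral wells for no effect and buffer without enzyme for full effect; nearly all actives have a fitted effect of over 40% in size; top concentration of the series not given in the record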
#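 Sodium acetate buffer (100 mM, pH 5.5) containing 5 mM DTT and 0.01% Triton X-100 hosted 1.5 nM cruzain and test compound for 15 min at room temperature. Cleavage of 2 uM Z-FR-AMC was then tracked by fluorescence.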
# NS1 inh – qHTS Assay for Inhibitors of Influenza NS1 Protein Function; S. cerevisiae slowed by influenza A NS1, growth recovery by OD600; Potency, µM (series often up to 46.1 µM), without a hit: at the highest dose activity, positive = more growth; hit rate 0.4% among 270,000; active means well fitted rising curve with a large enough effect; inconclusive means small, poorly fitted or top-dose-only effect; inactive means no such curve, though single readings can be large or run the other way; further: nearly all actives have a fitted effect of over 50% in size
#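 Compounds were scored for reversing the slow growth caused by influenza A NS1 in S. cerevisiae, measured by optical density at 600 nm. Assay medium contained 2% galactose at pH 6.0; NS1-free yeast of the same strain were the positive control.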
# SARS PLP yeast – qHTS of Yeast-based Assay for SARS-CoV PLP | S. cerevisiae expressing SARS-CoV PLpro, growth rescue; control for the full effect not named in the record | Potency, µM (series often up to 32.9 µM), inactives show top-dose activity, positive = growth rescue | hit rate 0.19% among 330,000; active means well fitted rising curve with a large enough effect; inconclusive means small, poorly fitted or top-dose-only effect; inactive means no such curve, though single readings can be large or run the other way; further: 0% is about no effect; nearly all actives have a fitted effect of over 55% in size; growth read by luminescence after 48 h
# Marburg entry inh – qHTS for inhibitors of binding or entry into cells for Marburg Virus | Marburg virus pseudotyped entry inhibition, cell reporter; control for the full effect not named in the record; about a third of the inactives were read at about 46 µM | Potency, µM (series often up to 37.8 µM), without a hit: at the highest dose activity change, negative = inhibition, most hits filed as inhibitors | hit rate 1.8% among 300,000; active = well fitted inhibition curve with a large enough effect; inconclusive = small, poorly fitted or top-dose-only effect, or effect the other way; inactive = flat fitted curve, though single readings scatter; tested in HEK293 cells; about a fifth of its hits are not listed in these tables; further: on the % scale 0 is the no-effect control and ±100 the full control effect; luciferase read-out
# 2A StopGo – High Throughput Screening for Foot and Mouth Disease Virus Antivirals; hit rate 1.2% among 410,000; human cells with a luciferase reporter of 2A StopGo recoding; control for the full effect not named in the record; Potency, µM (top dose mostly 57.9 µM), inactives show top-dose signal change, negative = less light; active = well fitted falling curve with a large enough effect; inconclusive = small, poorly fitted or top-dose-only effect; inactive = no such curve, though single readings can be large or run the other way; tested in HEK293T cells; further: on the % scale 0 is the no-effect control and ±100 the full control effect; nearly all actives have a fitted effect of over 45% in size; luciferase light after 4 h
# Lassa entry inh – qHTS for Inhibitors of binding or entry into cells for Lassa Virus. Lassa virus pseudotype entry inhibition, cell reporter; control for the full effect not named in the record. Potency, µM (top dose mostly 37.9 µM), inactives show at the top dose activity change, negative = inhibition, hits mostly inhibitors. hit rate 1.2% among 300,000. AID 540256, 2011; active means well fitted inhibition curve with a large enough effect; inconclusive means small, poorly fitted or top-dose-only effect, or effect the other way; inactive means flat fitted curve, though single readings scatter; tested in HEK293 cells; further: on the % scale 0 is the no-effect control and ±100 the full control effect; nearly all actives have a fitted effect of over 50% in size; luciferase read-out
# RE007 growth inh – qHTS Assay for Inhibitors of the HIV-1 protein Vpr | S. pombe RE007 Vpr strain, BacTiter-Glo ATP luminescence, 24 h; control for the full effect not named in the record | Potency, µM (series often up to 92.2 µM), for the others: at the top dose activity change, negative = less growth | hit rate 0.21% among 360,000 | AID 651644, 2012; active = well fitted falling curve with a large enough effect; inconclusive = small, poorly fitted or top-dose-only effect; inactive = no such curve, though single readings can be large or run the other way;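 further: on the % scale 0 is the no-effect control and ±100 the full control effect; nearly all actives have a fitted effect of over 50% in size; the assay follows cell death caused by Vpr and the record does not say whether a fall means rescue or toxicity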
#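 Fission yeast strain RE007, carrying one chromosomally integrated HIV-1 vpr copy, was seeded at OD 0.01 in PMG+AL medium with 23 nL pinned compound. After 24 h at 30 °C and 99% humidity, viability was read by BacTiter-Glo luminescence.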
# * = called active by the depositor; ? = inconclusive; / = not tested or not shown; & = joins results of further samples; [ ] = another dose, or the depositor's remark. Unless noted, the call rests on the fitted dose curve; in most records, active means well fitted curve in the direction sought with a large enough effect; inconclusive means small, poorly fitted or top-dose-only effect, or another doubt; inactive means no such curve, though single readings can be large; an effect the other way counts as inactive or inconclusive. Potency means the concentration at half of the fitted maximal effect.
SMILES,Cruzain noTriton,Cruzain Triton,NS1 inh,SARS PLP yeast,Marburg entry inh,2A StopGo,Lassa entry inh,RE007 growth inh
O=C(/C=C/c1ccc(Cl)cc1)N1CCN(c2ncccn2)CC1,-10%,-0.7%,14%,7%,-3%,/,/,/
Cc1cc2c(cc3c(SCc4cccc(F)c4)nnc(C)n32)o1,?,-7.4%,/,/,/,12%,?,/
Cc1cc2cc(CNC(=S)NC3CCCCC3)ccc2n1C,/,/,/,1%,0%,-18%,-13%,6%
COc1cccc(CNC(=O)c2c(O)nc3ccccn3c2=O)c1,-10%,-1.0%,/,/,-10%[46.1 µM],8%,/,/
O=[N+]([O-])c1ccccc1/C=C/C=N/n1c(-c2cc(-c3ccccc3)n[nH]2)n[nH]c1=S,/,/,2%,1%,-26%[46.1 µM],-8%,-28%,14%
CCOC(=O)c1cc(OC(=O)c2ccccc2Cl)n(-c2ccccc2)n1,7%,-5.8%,/,/,/,-9%,25%[46.1 µM],/
O=C(CCc1nnc2ccc(N3CCCC3)nn12)Nc1ccc(F)c(F)c1,/,/,-3%,-3%,/,-12%,/,-6%
COc1ccc(/C=C/C(=O)c2cccc(-n3cnnn3)c2)cc1O,/,/,13%,-8%,1%[46.1 µM],-11%,-1%,9%
Cc1cc(C)nc(SCC(=O)Nn2cnnc2)n1,-3%,7.8%,-9%,0%,9%,8%,1%,7%
CN1CCN(NC(=O)c2cc(Br)ccc2Cl)CC1,/,/,/,1%,-2%[46.1 µM],-9%,0%,-3%
O=C(CN1C(=O)/C(=C/c2ccccc2)SC1=S)Nc1cccnc1,/,/,-1%,-1%,/,-2%,/,25%
CCCOCc1cc(CN2CCN(c3cccc(Cl)c3)CC2)c(O)c2ncccc12,-6%,-1.9%,/,/,?,-23%,?,/
COc1ccc2c(c1)SC(C)CC2=O (configuration not stated),6%,1.8%,-5%,6%,6%,21%,-6%,-14%
Cc1ccc(N2CC(NC(=O)c3ccccc3C(F)(F)F)CC2=O)cc1C (configuration not stated),28%,-2.0%,/,/,/,-21%,-1%[46.1 µM],/
COc1ccc(CCN(C)Cc2c(O)ccc3ccccc23)cc1OC,/,/,2%,0%,?,-24%,-8%[46.1 µM],-20%
Cc1cccc(-n2cc(-c3ccccc3)c3c(=O)[nH]cnc32)c1,-1%,-4.4%,1%,1%,?,-28%,?,13%
N#C/C(=C/c1ccc(N2CCCCC2)o1)C(=O)NCCc1c[nH]c2ccccc12,-2%,-6.8%,18%,-20%,?,?,7.1µM*,14%
OCCN1CCN(CCOc2cccc(Cl)c2)CC1,1%,1.8%,-52%,-7%,8%,5%,26%,-10%
COc1ccc(NC(=O)c2ccc3nc[nH]c3c2)c(OC)c1,/,/,/,-1%,5%[46.1 µM],29%,12%,2%
OCC[C@@H]1C[C@H](O)[C@@H](O)[C@@]2(OCCc3ccccc32)O1,/,/,-5%,-9%,/,-10%,/,9%

# Structures listed so far with an aryl methoxy group, in the order listed:
SMILES,Cruzain noTriton,Cruzain Triton,NS1 inh,SARS PLP yeast,Marburg entry inh,2A StopGo,Lassa entry inh,RE007 growth inh
COc1cccc(CNC(=O)c2c(O)nc3ccccn3c2=O)c1,-10%,-1.0%,/,/,-10%[46.1 µM],8%,/,/
COc1ccc(/C=C/C(=O)c2cccc(-n3cnnn3)c2)cc1O,/,/,13%,-8%,1%[46.1 µM],-11%,-1%,9%
COc1ccc2c(c1)SC(C)CC2=O (configuration not stated),6%,1.8%,-5%,6%,6%,21%,-6%,-14%
COc1ccc(CCN(C)Cc2c(O)ccc3ccccc23)cc1OC,/,/,2%,0%,?,-24%,-8%[46.1 µM],-20%
COc1ccc(NC(=O)c2ccc3nc[nH]c3c2)c(OC)c1,/,/,/,-1%,5%[46.1 µM],29%,12%,2%

# Other structures
SMILES,Cruzain noTriton,Cruzain Triton,NS1 inh,SARS PLP yeast,Marburg entry inh,2A StopGo,Lassa entry inh,RE007 growth inh
O=C(COC(=O)c1cccc2c1C(=O)c1ccccc1C2=O)NC1CCCCC1,0%,-11%,-25%,-2%,?,?,?,-6%
COc1ccc(OC)c(NC(=O)CCCSc2ccccc2)c1,/,/,-14%,-27%,-4%[46.1 µM],-4%,5%,16%
COc1cc(SC)ccc1C(=O)Nc1ccc2c(c1)OCCO2,-1%,-3.2%,-124%,-9%,?,-13%,12µM*,-7%
CCN(CC)S(=O)(=O)c1ccc(C(=O)Nc2cc(C)cc(C)c2)cc1,6%,-0.3%,-48%,-3%,?,-9%,?,-8%
Cc1cc(N2CCN(c3ccccn3)CC2)n2cc(-c3ccccc3)nc2n1,3%,-2.8%,-14%,-1%,-13%,-6%,21%,-19%
Cc1cc(C)c(S(=O)(=O)c2cc(F)ccc2C)c(=O)[nH]1,/,/,4%,0%,/,-2%,/,-1%
CC(=O)C1=C(C)NC(=O)CC1c1ccc(Br)cc1 (configuration not stated),/,/,/,-2%,-1%[46.1 µM],-2%,4%[46.1 µM],13%
CCNCc1cc(Br)c(OCC(=O)Nc2ccccc2)c(OC)c1,-26%,-21%,2%,-10%,?,-19%,15%,-32%[3.69 µM]
COCCCn1c(=O)/c(=C\c2ccccc2OC(F)F)s/c1=C(/C#N)C(N)=O,/,/,/,-1%,2%[46.1 µM],-6%,9%[46.1 µM],-7%
O=C(O)c1cccc(NC(=O)c2cccc(S(=O)(=O)N3CCCCC3)c2)c1,2%,-3.0%,?,-3%,-19%,/,?,-4%
Cc1cc(C(F)(F)F)n2nc(-c3sccc3-n3cccc3)cc2n1,6%,-0.9%,11%,4%,-12%,0%,-5%,1%
O=C(Nc1nc(-c2ccccc2)cs1)c1ccc(=O)[nH]c1,/,/,/,3%,16%,?,-1%,-8%
O=C(O)C1C2CCC(C2)C1C(=O)Nc1cccc([N+](=O)[O-])c1 (configuration not stated),/,/,-1%,2%,8%[46.1 µM],-11%,-14%[46.1 µM],2%
Cc1c(Cl)cccc1NCC(=O)NN=C1CCCC1,/,/,?,1%,16%[46.1 µM],-5%,10%[46.1 µM],11%
COCCNC(=O)CCSc1nc(-c2ccc3c(c2)OCO3)cc(C(F)(F)F)n1,?,-8.3%,/,/,-15%[46.1 µM],-9%,-2%[46.1 µM],/
C/C(CCc1ccccc1)=N\NC(=O)CCc1ccccc1,10%,1.2%,9%,-3%,?,-6%,?,-6%
O=C(N/N=C/c1ccoc1)c1ccccc1Br,/,/,-3%,?,10%[46.1 µM],11%,?,-15%
Cc1ccc(-c2noc(CSc3nnc(-c4ccc(Cl)cc4)n3C)n2)cc1,-6%,-8.6%,/,/,1%[46.1 µM],-17%,-4%[46.1 µM],/
Cc1ccc(S(=O)(=O)CC(=O)Nc2ncc([N+](=O)[O-])s2)cc1,/,/,-12%,-4%,-3%[46.1 µM],-2%,16%,1%
COc1ccc(NC(=S)N(CCN2CCCCC2)Cc2ccco2)cc1,/,/,/,3%,-3%[46.1 µM],12%,-7%,-12%
CC(=O)NCCOc1ccc(C(=O)O)cc1,3%,4.2%,2%,9%,-3%,-12%,22%,3%
Cc1ccc2[nH]cc(CCCN3C(=O)c4ccccc4C3=O)c2c1,-4%,-11%,3%,-14%,16µM*,-5%,?,-8%
CCOC(=O)C1CCN(C(=O)C2CCCN(S(=O)(=O)c3ccc(OC)c(Cl)c3)C2)CC1 (configuration not stated),/,/,-16%,0%,?,?,-4%,-22%
c1ccc(-c2n[nH]c3ccccc23)cc1,2%,-7.9%,-92%,-27%,1%,16%,?,-12%
COc1ccc(N2CCN(S(=O)(=O)CCNS(=O)(=O)c3ccccc3)CC2)cc1,/,/,/,-4%,3%,0%,3%[46.1 µM],14%
CCOc1nc2ccccc2cc1C=O,/,/,-4%,0%,3%[46.1 µM],5%,-5%,?
c1cnc(N2CCN(Cc3ccc4c(c3)OCO4)CC2)nc1,9%&1%&-2%&-8%,-4.5%&-1.3%&4.2%&0.2%,1%&3%,1%&3%&2%,?,-10%&-4%&-20%,?,-4%&2%[18.4 µM]
COc1ccc(/C=N/N=C(\N)c2nonc2N)cc1OC,/,/,/,-2%,?,81%[activator],9%,-11%
S=C(NCc1ccco1)N/N=C/c1ccncc1,/,/,1%,1%,-25%[46.1 µM],-18%,-18%[46.1 µM],6%
O=C(Nc1ccccc1)Nc1cccc2ccccc12,/,/,-1%,-1%,-16%,28%,10%,83%
Cc1nn(-c2ccccc2)c(Cl)c1/C=N/NC(=O)c1ccccc1F,/,/,-46%,-1%,-3%,72%[activator],?,27%
O=C(COc1ccccc1)OC(C(=O)c1ccccc1)c1ccccc1 (configuration not stated),-2%,-7.4%,2%,-2%,0%,-2%,8%,5%
COc1cc(C2c3cc4c(c(O)c3CC3COC(=O)C32)OCO4)cc(OC)c1OC (configuration not stated),-11%,4.2%,/,/,?,-22%&-8%,/,6%
O=C(C(=O)N1CCN(c2cccc(Cl)c2)CC1)c1cn(CC(=O)N2CCOCC2)c2ccccc12,/,/,-6%,-1%,/,48%[activator],/,-3%
COc1cccc(NC(=O)Nc2nc(SC)ns2)c1,/,/,-10%,-9%,?,-6%,15%[46.1 µM],-1%
Oc1c(Cl)cc(Cl)cc1C=Nc1ccccc1N1CCCC1,-1%,-7.7%,-36%,-50%,-15%,/,-12%,/
COc1cc2c(cc1OC)C(C(=O)O)C(c1ccc(C)o1)N(C)C2=O (configuration not stated),-3%,5.1%,6%,8%,-7%[46.1 µM],-2%,-3%,2%
CCCc1nc(-c2ccccc2O)n(-c2ccccc2)n1,11%,-0.4%,-15%,-4%,4%,-8%,-1%,0%

# High-throughput results (PubChem)
